Assay outcomes from PubChem.
NPYLR7 ag = agonists of mosquito NPYLR7 receptor, primary screen, cell-based, Aedes aegypti, calcium fluorescence, mosquito biting behavior | Aedes aegypti neuropeptide Y-like receptor 7 (NPYLR7) | HEK293T NPYLR7/Galpha15, GCaMP6s calcium fluorescence | activation, % at 10 µM | 270,000 tested, 0.15% active; in the data active = activation above about 40%;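 note: 0% = vehicle and 100% = reference agonist at the receptor; some compounds past the cut are filed as inactive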
NPYLR7 ag max-min = recorded beside NPYLR7 ag, whose call it bears; activation, %; measured here: Max-Min RFU normalised activation; some inactives read as strong as hits;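 span of the calcium signal over five minutes; 0% = vehicle and 100% = native peptide agonist; compound fluorescence can raise it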
* hit, by the source's call; & = joins results of further samples. Not all compounds are listed. The share of hits here may be higher or lower than overall.

How did COCC(C)NC(=O)c1cc2c(=O)n(C)c(=O)n(C)c2n1Cc1ccccc1 (centres undefined) do in these assays?
NPYLR7 ag: -2; NPYLR7 ag max-min: -2

What do the screens show for `COc1cccc(CCNc2ncnc3c2nnn3C)c1`?
NPYLR7 ag: 9; NPYLR7 ag max-min: 7

What do the screens show for `COc1cc(C)cc2c1OCCC2NC(=O)Nc1ccccc1` (centres undefined)?
NPYLR7 ag: 1; NPYLR7 ag max-min: -2

What do the screens show for `COc1ccc(CN2CCN(C(=O)c3cc(C)c(C)c(S(N)(=O)=O)c3)CC2)cc1`?
NPYLR7 ag: 10; NPYLR7 ag max-min: 6

What do the screens show for `CCCn1nc(C)c(CNc2ccc(Br)cc2)c1C`?
NPYLR7 ag: -20&2; NPYLR7 ag max-min: -22&1

Results for O=C(NCc1ccc2c(c1)OCCO2)C1CCN(S(=O)(=O)c2ccccc2)CC1 ?
NPYLR7 ag: -1; NPYLR7 ag max-min: 32

How did CCOC(=O)c1c(CSC2=NC(C)=C(C(C)=O)C(CC(C)C)C2C#N)oc2ccc(O)cc12 (centres undefined) do in these assays?
NPYLR7 ag: 0; NPYLR7 ag max-min: 38

What do the screens show for `O=C(NC1CC1)c1ccc(NC(=O)c2ccc(F)cc2Br)cc1`?
NPYLR7 ag: 9; NPYLR7 ag max-min: 4

What do the screens show for `C[C@H](C(=O)N[C@H](CO)c1ccccc1)N1Cc2ccc(N3CCOCC3)nc2C1=O`?
NPYLR7 ag: 4; NPYLR7 ag max-min: 0

What do the screens show for `Cc1cc(Cc2c(O)nc(N)[nH]c2=O)ccc1OC(C)C`?
NPYLR7 ag: 0; NPYLR7 ag max-min: -1

Results for CC(C)CC(=O)N[C@H](C(=O)N[C@H](C(=O)N[C@@H](CC(C)C)[C@@H](O)CC(=O)N[C@@H](C)C(=O)N[C@@H](CC(C)C)[C@@H](O)CC(=O)O)C(C)C)C(C)C ?
NPYLR7 ag: 5; NPYLR7 ag max-min: 1

How did CCCCn1c(N)c(NCCC(C)C)c(=O)[nH]c1=O do in these assays?
NPYLR7 ag: 3; NPYLR7 ag max-min: -2

Results for Cc1ccc(C=NNc2ncnc3sc4c(c23)CCCC4)c(O)c1 ?
NPYLR7 ag: -4; NPYLR7 ag max-min: -5

What do the screens show for `CN(CCOc1ccccc1Cl)C(=O)CCN1C(=O)c2ccccc2C1=O`?
NPYLR7 ag: -1; NPYLR7 ag max-min: -3

Results for Cc1noc(C)c1CNC(=O)N(C)C(C)c1ccccc1F (centres undefined) ?
NPYLR7 ag: 1; NPYLR7 ag max-min: 0

Results for CC(=O)N1CCCN(C(=O)NC(C)c2nncn2C)CC1 (centres undefined) ?
NPYLR7 ag: 1; NPYLR7 ag max-min: 0

Results for Cc1cc(C)c([N+](=O)[O-])c(C)c1C(=O)C[n+]1cccc(Br)c1 ?
NPYLR7 ag: -2; NPYLR7 ag max-min: 26

How did Cc1cc2nc(NCc3ccccn3)c3ccccc3n2n1 do in these assays?
NPYLR7 ag: 4; NPYLR7 ag max-min: 7

What do the screens show for `COC(=O)c1[nH]ncc1CN(C)Cc1cnn(-c2ccc(F)cc2)c1`?
NPYLR7 ag: -2; NPYLR7 ag max-min: -2

Results for COc1cn(-c2ccccc2)nc1C(=O)Nc1ccncc1 ?
NPYLR7 ag: 7; NPYLR7 ag max-min: 2

By substructure, the entries above with bromine
What do the screens show for `CCCn1nc(C)c(CNc2ccc(Br)cc2)c1C`?
NPYLR7 ag: -20&2; NPYLR7 ag max-min: -22&1

What do the screens show for `O=C(NC1CC1)c1ccc(NC(=O)c2ccc(F)cc2Br)cc1`?
NPYLR7 ag: 9; NPYLR7 ag max-min: 4

Results for Cc1cc(C)c([N+](=O)[O-])c(C)c1C(=O)C[n+]1cccc(Br)c1 ?
NPYLR7 ag: -2; NPYLR7 ag max-min: 26

Back to the main list, starting four compounds before the break.
Results for Cc1cc(C)c([N+](=O)[O-])c(C)c1C(=O)C[n+]1cccc(Br)c1 ?
NPYLR7 ag: -2; NPYLR7 ag max-min: 26

How did Cc1cc2nc(NCc3ccccn3)c3ccccc3n2n1 do in these assays?
NPYLR7 ag: 4; NPYLR7 ag max-min: 7

What do the screens show for `COC(=O)c1[nH]ncc1CN(C)Cc1cnn(-c2ccc(F)cc2)c1`?
NPYLR7 ag: -2; NPYLR7 ag max-min: -2

Results for COc1cn(-c2ccccc2)nc1C(=O)Nc1ccncc1 ?
NPYLR7 ag: 7; NPYLR7 ag max-min: 2

Results for CC(C)(C)c1ccc(C(=O)Nc2ccc(-c3nc4ccccc4o3)c(O)c2)cc1 ?
NPYLR7 ag: 12; NPYLR7 ag max-min: 11

How did Cc1cccc2c1N(C(=O)c1ccc(S(=O)(=O)N3CCCCC3)cc1)CCC2 do in these assays?
NPYLR7 ag: -1; NPYLR7 ag max-min: 6

Results for Cc1nc2c(-c3ccccc3)cnn2c(NCC(C)C)c1C ?
NPYLR7 ag: -2; NPYLR7 ag max-min: -3

How did CC(Cc1cccs1)Nc1ccnc(C(=O)NCc2cccnc2)c1 (centres undefined) do in these assays?
NPYLR7 ag: 10; NPYLR7 ag max-min: 9

What do the screens show for `COc1ccc(NC(=O)N(CCCN2CCOCC2)CC(=O)N(Cc2ccc3c(c2)OCO3)Cc2ccco2)c(OC)c1`?
NPYLR7 ag: -7; NPYLR7 ag max-min: -4

How did Cc1nc(SCC(O)CN2CCCCC2)c([N+](=O)[O-])[nH]1 (centres undefined) do in these assays?
NPYLR7 ag: 16; NPYLR7 ag max-min: 7

How did CCn1c(C)cc(O)c(C(c2cccnc2)N2CCN(c3ccccc3)CC2)c1=O (centres undefined) do in these assays?
NPYLR7 ag: 6; NPYLR7 ag max-min: 1

What do the screens show for `Cc1c(C(=O)N2CC(C)CC(C)C2)cnc2c(-c3ccc(C(C)C)cc3)cnn12` (centres undefined)?
NPYLR7 ag: 6; NPYLR7 ag max-min: -8

Results for COc1cccc(CSc2nnc(C(C)NC(=O)/C=C/c3ccc([N+](=O)[O-])cc3)n2-c2cc(Cl)ccc2Cl)c1 (centres undefined) ?
NPYLR7 ag: -1; NPYLR7 ag max-min: 11

How did O=S(=O)(NCc1ccccc1)N1CCN(Cc2ccc3c(c2)OCO3)CC1 do in these assays?
NPYLR7 ag: 4; NPYLR7 ag max-min: 1

How did O=C1COc2ccc(C(=O)C[n+]3cccc(O)c3)cc2N1 do in these assays?
NPYLR7 ag: 4&6; NPYLR7 ag max-min: 1&15

How did CCc1cc(N2CCOCC2)nc(SCc2ccc(C(=O)NCc3ccco3)cc2)n1 do in these assays?
NPYLR7 ag: 3; NPYLR7 ag max-min: 17

How did Cn1cc(C2CC2C(=O)NCC2(C(N)=O)CCOCC2)cn1 (centres undefined) do in these assays?
NPYLR7 ag: 0; NPYLR7 ag max-min: -1

How did CN1CCC2(CC1)CN(C(=O)COCC(F)(F)C(F)F)CCN2C do in these assays?
NPYLR7 ag: 4; NPYLR7 ag max-min: 3

How did C=CCNC(=O)CN1CCN(C(=O)c2oc3ccc(OC)cc3c2C)CC1 do in these assays?
NPYLR7 ag: 1; NPYLR7 ag max-min: -4

What do the screens show for `C=CCNc1oc(COc2ccc(F)cc2)nc1C#N`?
NPYLR7 ag: 0; NPYLR7 ag max-min: -1

What do the screens show for `CCOc1ccc(-c2cc3c(SC)nccn3n2)cc1Cl`?
NPYLR7 ag: 4; NPYLR7 ag max-min: 2

Results for CCc1ccc(C(C)NC(=O)C(C)N=C2NS(=O)(=O)c3ccccc32)cc1 (centres undefined) ?
NPYLR7 ag: 14; NPYLR7 ag max-min: 11

What do the screens show for `CC(CO)CSC(C)c1ccc(C#N)cc1` (centres undefined)?
NPYLR7 ag: 17; NPYLR7 ag max-min: 7

Results for CCc1nc2n(n1)C(=O)C(C(c1ccccc1)N1CCC(O)CC1)S2 (centres undefined) ?
NPYLR7 ag: -5; NPYLR7 ag max-min: -11

What do the screens show for `CCC1=[N+]([O-])C(c2ccccc2)N(O)C1(C)C` (centres undefined)?
NPYLR7 ag: -5; NPYLR7 ag max-min: -8

Results for CC(C)N(CCCNC(=O)c1ccccc1Br)S(C)(=O)=O ?
NPYLR7 ag: 4; NPYLR7 ag max-min: 0

Results for Cc1cccc(N2CCC(NCCSc3ncn[nH]3)CC2)c1 ?
NPYLR7 ag: -7; NPYLR7 ag max-min: -8

What do the screens show for `Cc1cc(C)nc(N=C(NC(=O)COc2ccc(Cl)cc2)Nc2ccccc2)n1`?
NPYLR7 ag: -6; NPYLR7 ag max-min: -4

What do the screens show for `O=C(C1CCN(S(=O)(=O)c2ccccc2)CC1)N(Cc1c(F)cccc1Cl)C1CC1`?
NPYLR7 ag: 6; NPYLR7 ag max-min: 2

How did Cc1nc(-c2ccc(F)cc2)sc1C(=O)N1CSCC1C(=O)NCCC(C)C (centres undefined) do in these assays?
NPYLR7 ag: 2; NPYLR7 ag max-min: 1

What do the screens show for `CC1CN(C(=O)c2cc3ccccc3cc2NC(=O)C2CC2)CCO1` (centres undefined)?
NPYLR7 ag: -2; NPYLR7 ag max-min: -1

What do the screens show for `Cc1cccc2c3c4n(c12)CC1COC4(CCC3)O1` (centres undefined)?
NPYLR7 ag: 9; NPYLR7 ag max-min: 1

Results for COc1ccc(-c2ccc(CCC(=O)NCCCn3ccnc3)n2-c2ccc(SC)cc2)cc1 ?
NPYLR7 ag: 1; NPYLR7 ag max-min: 0

Results for C/C=C/C(=O)N1CCC(n2nc(C(=O)OCC)cc2CCC)CC1 ?
NPYLR7 ag: 3; NPYLR7 ag max-min: 1

Results for Cc1c(C(=O)N2CCN(S(=O)(=O)c3ccccc3F)CC2)cnn1-c1ccccc1 ?
NPYLR7 ag: 11; NPYLR7 ag max-min: 11

How did COCCN(CC(=O)N1CCc2sccc2C1c1ccc(C)cc1)C(=O)c1ccccc1Br (centres undefined) do in these assays?
NPYLR7 ag: -3; NPYLR7 ag max-min: 2

How did Cc1nc2c(OCCC3CCCCC3)cccn2c1N(C)C(=O)CCC1CCCC1 do in these assays?
NPYLR7 ag: -12; NPYLR7 ag max-min: -16

Results for O=C(NCc1cccs1)c1cccnc1N1CCN(C(=O)c2sccc2Cl)CC1 ?
NPYLR7 ag: -6; NPYLR7 ag max-min: -2

How did O=C(CCc1c[nH]c2ccccc12)N1CCN(C(c2ccccc2)c2ccc(F)cc2)CC1 (centres undefined) do in these assays?
NPYLR7 ag: -14; NPYLR7 ag max-min: -13

What do the screens show for `Cc1ccc(C(=O)N2CCOC(COc3ccc(F)cc3)C2)c(Cl)n1` (centres undefined)?
NPYLR7 ag: -3; NPYLR7 ag max-min: -11

What do the screens show for `NCCSCc1ccsc1`?
NPYLR7 ag: 8; NPYLR7 ag max-min: 18

Results for CC(C)Oc1nc(-c2ccc(C(F)(F)F)cc2)n(-c2ccc(NC(=O)Cc3ccccc3)cc2)n1 ?
NPYLR7 ag: -1; NPYLR7 ag max-min: 13

How did COc1ccc(C(=O)N2CCCC(OCc3cccc(C)c3)C2)cc1 (centres undefined) do in these assays?
NPYLR7 ag: -8; NPYLR7 ag max-min: 4

What do the screens show for `CC(C)(C)CN1CC(NC(=O)c2cc(=O)[nH]c3ccc(F)cc23)CC1=O` (centres undefined)?
NPYLR7 ag: 10; NPYLR7 ag max-min: 5

What do the screens show for `CCOC(=O)C1(C)CCN1C(=O)c1ccccc1OC` (centres undefined)?
NPYLR7 ag: -2; NPYLR7 ag max-min: -1

How did Cc1nc(SCC(=O)c2ccc(Cl)cc2)c2c3c(sc2n1)CCC3 do in these assays?
NPYLR7 ag: -4; NPYLR7 ag max-min: -7

What do the screens show for `CCCCCn1c(NC)nc2c1c(=O)[nH]c(=O)n2C`?
NPYLR7 ag: 2; NPYLR7 ag max-min: 3

Results for O=C(Nc1ccccc1)N1CCN(c2ccc3nnc(C4CC4)n3n2)CC1 ?
NPYLR7 ag: 1; NPYLR7 ag max-min: 6

Results for CC(C)N1CCC(C)(C(=O)Nc2nccc3ccccc23)C1 (centres undefined) ?
NPYLR7 ag: 5; NPYLR7 ag max-min: 6

How did O=C1c2nc(-c3cccnc3)ccc2CN1C1(C(=O)NCC2CCOCC2)CC1 do in these assays?
NPYLR7 ag: 12; NPYLR7 ag max-min: 24

What do the screens show for `Cc1cccc(Cn2c(Cc3c[nH]c4ccccc34)n[nH]c2=O)c1`?
NPYLR7 ag: 3; NPYLR7 ag max-min: 6

What do the screens show for `Cc1ccc(CN(CC(C)O)C(C)C)s1` (centres undefined)?
NPYLR7 ag: 4; NPYLR7 ag max-min: 9

What do the screens show for `CC(=O)Oc1c(-c2ccc(NC(=O)C3CCCC3)cc2)c(-c2cccc(N(C)C)c2)nn1-c1ccc(C)cc1`?
NPYLR7 ag: 3; NPYLR7 ag max-min: 10

What do the screens show for `CCOC(=O)c1[nH]c(C)c(C(=O)N2CCc3c([nH]c4ccccc34)C2c2ccccn2)c1C` (centres undefined)?
NPYLR7 ag: 0; NPYLR7 ag max-min: -9

What do the screens show for `Cc1ccc(C(C)C)c(OCC(=O)Nc2sc(C)c(C)c2C(N)=O)c1`?
NPYLR7 ag: -3; NPYLR7 ag max-min: -9

What do the screens show for `COCc1nc(C)cc(NCc2ccc(-c3ccn[nH]3)cc2)n1`?
NPYLR7 ag: 0; NPYLR7 ag max-min: -1
